Compound activity: PubChem, Johns Hopkins Ion Channel Center
Kir21 inh – Kir2.1 (mouse) channel inhibition. B-score at 10 µM. P35561. AID 1672. 310,000 tested, 0.85% active. HEK293-Kir2.1, FluxOR thallium flux fluorescence; hits give low values;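 active = fluorescence ratio B-score at or below minus 3 SD of library scores, with starting-brightness B-score within 2 SD, cut at about -4.2 in these data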;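 note: channel flux triggered by added potassium and thallium sulfate stimulus; B-score of peak minus minimum fluorescence over baseline after thallium stimulus; more negative B-score means stronger Kir2.1 block with less thallium influx; some compounds called inactive have numbers as strong as hits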
Target sequence (P35561 whole entry, looked up): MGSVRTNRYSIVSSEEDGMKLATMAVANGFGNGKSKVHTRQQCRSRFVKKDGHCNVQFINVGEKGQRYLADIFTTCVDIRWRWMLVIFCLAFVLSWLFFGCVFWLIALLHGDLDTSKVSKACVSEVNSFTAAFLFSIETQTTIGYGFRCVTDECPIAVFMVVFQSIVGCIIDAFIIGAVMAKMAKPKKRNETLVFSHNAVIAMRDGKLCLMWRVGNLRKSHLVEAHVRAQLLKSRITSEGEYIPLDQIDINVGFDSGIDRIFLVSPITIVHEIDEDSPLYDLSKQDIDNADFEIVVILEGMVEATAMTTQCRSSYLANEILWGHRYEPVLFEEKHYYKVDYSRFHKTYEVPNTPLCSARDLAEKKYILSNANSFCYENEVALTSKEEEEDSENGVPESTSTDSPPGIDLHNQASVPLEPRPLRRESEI
Starred values were filed as active, the others as inactive. This is a subset, and most or all hits are left out here.

SMILES | Kir21 inh
COc1cccc(NCc2nnc(SCC(=O)NC3CCS(=O)(=O)C3)n2C2CCCCC2)c1 (stereo not drawn) | 0.49
N#Cc1ccc(CSc2nnc(NC(=O)C3CCCO3)s2)cc1 (stereo not drawn) | -0.89
COc1cc(=O)n(C)c2cc(N(C)C)ccc12 | -0.37
C=CCN(C(=O)c1csnn1)C(C(=O)NC1CCCCC1)c1ccccc1F (stereo not drawn) | 0.02
Cc1ccc(CNC(=O)CCCCCNc2nc(=S)[nH]c3ccccc23)cc1 | 0.03
CCOC(=O)CSc1nnc(NC(=O)c2cccc([N+](=O)[O-])c2C)s1 | 0
C[C@@H](NC(=O)C1(c2ccccc2)CCN(C(=O)OC(C)(C)C)CC1)C(=O)N[C@@H](C(=O)O)c1ccccc1 | -2.2
O=C(CN(C1CCCCC1)S(=O)(=O)c1ccc(F)cc1)NC1CC1 | 0.94
CCc1ccccc1Nc1nc2ccccc2n1C | -0.38
COC(=O)C1=CN(C(C)c2ccccc2)C=C(C(=O)OC)C1c1cc(OC)c(OC)c(OC)c1 (stereo not drawn) | 0.27
O=C(CSc1nnc(-c2ccccc2)o1)c1nnc(-c2ccccc2)o1 | 1.2
C[C@H](NC(=O)c1nc[nH]c1C(=O)NCC(=O)OC(C)(C)C)c1ccccc1 | -2.9
CC(OC(=O)c1cccnc1)C(=O)NCc1ccc2c(c1)OCO2 (stereo not drawn) | 1.6
CCCS(=O)(=O)N1CCCC(C(=O)NCCN(CC)CC)C1 (stereo not drawn) | 0.82
O=C1Nc2ccc(Cl)cc2C(=O)C1(F)c1ccccc1 (stereo not drawn) | 0.81
COc1ccc(NC(=O)c2csc(Cc3ccccc3)n2)cc1 | 0.49
COc1cccc2c(=O)ccoc12 | 1.1
Cc1ccc(S(=O)(=O)N2CCN(CC(=O)NC3CCCc4ccccc43)CC2)cc1C (stereo not drawn) | -1.4
Cc1ccc(S(=O)(=O)NCCSc2ccccc2)cc1[N+](=O)[O-] | -1.8
CCOc1ccc2c(c1)c(=O)c(S(=O)(=O)c1ccc(CC)cc1)cn2C | 1.4
Cc1ccsc1/C=N/n1c(-c2ccccn2)n[nH]c1=S | 2.4
COc1ccccc1N1CCN(C(=O)c2onc(C)c2Cl)CC1 | -1.6
COc1ccccc1/C=C/CN1CCN(Cc2ccc(C)o2)C(CCO)C1 (stereo not drawn) | 0.17
CC(=O)Nc1cccc(-c2csc(N)n2)c1 | 1.8
O=C(c1cc([N+](=O)[O-])ccc1N1CCOCC1)N1CCN(S(=O)(=O)c2cc(Cl)ccc2Cl)CC1 | -0.2

Ordered by heavy-atom count (falling): part of the list above.
SMILES | Kir21 inh
CC(OC(=O)c1cccnc1)C(=O)NCc1ccc2c(c1)OCO2 (stereo not drawn) | 1.6
COc1ccccc1N1CCN(C(=O)c2onc(C)c2Cl)CC1 | -1.6
CCc1ccccc1Nc1nc2ccccc2n1C | -0.38

Going on with the list.
SMILES | Kir21 inh
CCOC(=O)C1CCCN(Cc2nc(N)nc(Nc3ccccc3)n2)C1 (stereo not drawn) | 0.05
COc1ccc(NC(=O)c2cccc(N3C(=O)c4ccc(C(=O)Nc5ccc(OC)c(O)c5)cc4C3=O)c2)cc1O | -0.46
Cc1sc(NC(=O)c2ccc(=O)n(C)n2)nc1-c1ccccc1 | 1.6
CCCCC(=O)Nc1ccc2c(c1)C(=O)NC2=O | -1.2
CCC1CCc2c(sc(NC(C)=O)c2C#N)C1 (stereo not drawn) | 0.11
CSc1nc2c(c(=O)n1-c1ccc(F)cc1)SCC2 | 0.01
COc1ccc(CC2C(=O)OC(C)(C)OC2=O)c(Cl)c1OC | 0.34
CCCCn1c(CCC(=O)O)nc2c1c(=O)[nH]c(=O)n2CCC | 0.07
CCOC(=O)C(=O)N/N=C/c1cccc(Br)c1 | 1.6
COc1ccc(OCc2cc(C(=O)NC3CCOCC3)no2)c2ccccc12 | 0.43
Cc1ccsc1C(=O)OCc1nc2ccsc2c(=O)[nH]1 | 0.67
O=C(O)c1ccc(N2C(=O)/C(=C/C=C/c3ccccc3)SC2=S)cc1 | -0.2
CCCCP(=O)(CCCC)c1ccccc1C(=O)O | 1.2
COCCCNC(=O)CSc1c2c(nc3ccc(Cl)cc13)CCCC2 | -1.2
COc1ccccc1CNC(=O)CN(C)S(=O)(=O)c1cccc2cccnc12 | -2.1
OCCC1CN(Cc2nc(-c3ccccc3)cs2)CCN1C1CCCC1 (stereo not drawn) | -1
CC(C)c1nc(NCCO)c(C#N)c2c1CCCC2 | -0.89
Cc1ccc(CCNC(=O)c2nc(CS(=O)(=O)c3ccc(Cl)cc3)no2)cc1 | 0.17
CCOC(=O)CN(C(=O)CSc1nnc2c(n1)[nH]c1ccc(OC)cc12)c1ccc(F)cc1 | 0.48
O=C(CN(C(=O)c1csnn1)c1ccc2c(c1)OCCO2)NCc1ccccc1 | 0.13
CCSC1=N/C(=C\c2ccc3c(c2)OCO3)C(=O)S1 | 0.05
Cc1ccc(CNC(=O)CN(C)S(=O)(=O)c2cnc[nH]2)cc1 | -1.4
O=C(COc1coc(CN2CCCc3ccccc32)cc1=O)Nc1ccc([N+](=O)[O-])cc1 | -0.56
O=C(Nc1ccc(N2CCN(C(=O)c3cccs3)CC2)cc1)c1cccc(F)c1 | 1.3
Cc1nc2cc(-c3cccs3)[nH]n2c(=O)c1C | -0.34

Remaining list, next part:
SMILES | Kir21 inh
C/C(CC(=O)NC12CC3CC(CC(C3)C1)C2)=N\NC(=O)Cc1cccs1 | 1.4
COc1ccc(CO[C@@H]2O[C@H](CO)[C@@H](O)[C@H](O)[C@H]2NC(C)=O)cc1OC | -1.6
NC(=O)NC(=O)COC(=O)CCCSc1nc2ccccc2s1 | 1.2
C/C(=N\NC(=S)Nc1ccc(C)cc1)c1cccc(N)c1 | -1.2
CCC(=O)N(CCc1ccccc1)Cc1cc2cccc(C)c2[nH]c1=O | -0.42
CC1CN(Cc2ccccc2)c2nc3c(c(=O)n(C)c(=O)n3C)n2C1 (stereo not drawn) | -0.49
COC(=O)c1ccc(-c2ccc(C(c3c(C)[nH][nH]c3=O)c3c(C)[nH][nH]c3=O)o2)cc1 | -2.4
CC(=O)N1CCN(c2ccc(NC(=O)c3ccc(OCc4ccccc4)cc3)cc2)CC1 | 0.28
COc1ccc(OC)c(/C=C/C(=O)OCC(=O)Nc2cccc(C(C)=O)c2)c1 | -1.5
COC(=O)c1ccc(Nc2ncnc3sccc23)cc1 | 1.1
Cc1ccc(NC(=O)C2CCCCC2C(=O)O)cc1C (stereo not drawn) | 0.03
C[C@H](NC(=O)c1ccccc1Cl)C(=O)OCC(=O)NNC(=O)c1cccs1 | 0.86
Nc1nnc(CSCc2ccc(F)cc2)s1 | -1.5
Cc1cccc(NC(=O)c2nc(-c3ccccc3)n(-c3ccccc3)n2)c1C | 1.3
CC(=O)c1cccc(NC(=O)/C(=C\c2cccnc2)NC(=O)c2ccc(C)cc2)c1 | 0.17
O=C(c1ccc(Br)o1)N1CCN(Cc2ccc3c(c2)OCO3)CC1 | 3.4
O=C(Nc1ccc(C(=O)N2CCOCC2)cc1)c1cc(-c2cccnc2)nc2ccc(Cl)cc12 | 0.21
CC(C)CSc1n[nH]c(N)n1 | 0.74
CCC(=O)c1ccc(OCC(O)CN2CCN(C(c3ccccc3)c3ccccc3)CC2)cc1 (stereo not drawn) | 1
CN(C)/C=N/c1nccc(-c2cccs2)n1 | -0.35
COCCNC(=O)c1ccccc1NC(=O)c1ccccc1N(C)S(C)(=O)=O | -0.5
Cc1ccc(-n2nc3c([n+]2[O-])CCc2c-3no[n+]2[O-])cc1 | 2.2
COc1ccc(C(=O)NNC(=O)c2ccncc2)cc1[N+](=O)[O-] | -0.19
O=C(CS(=O)(=O)c1cn(Cc2cccc(F)c2)c2ccccc12)N1CCCCC1 | -1.2
COc1ccc(/C=N/Nc2ccc([N+](=O)[O-])cc2S(=O)(=O)N2CCN(C)CC2)cc1 | -0.27

(cont.)
SMILES | Kir21 inh
Cc1ccc(C(=O)N(CC(C)C)c2c(N)n(Cc3ccccc3)c(=O)[nH]c2=O)o1 | -0.96
Nc1nnc(C(=O)c2ccccc2N)s1 | -0.38
CCOC(=O)CCCNC(=O)CCNC(=O)c1ccc(OC)cc1 | 0.72
COc1ccc(NC(=O)Cc2cccc(F)c2)cc1S(=O)(=O)Nc1ccccc1Cl | -3.1
Cc1nc2ccccc2n1CC(=O)NCc1ccccc1 | 1.8
Cc1c(NS(=O)(=O)c2ccc(N3CCCCC3)c([N+](=O)[O-])c2)c(=O)n(-c2ccccc2)n1C | -1.1
COc1ccc(/C=N/OCc2nc3c4c(ncn3n2)Oc2ccc3ccccc3c2C4c2ccccc2)cc1 (stereo not drawn) | 0.29
CCS(=O)(=O)N1CCCC(C(=O)NCCN(C)Cc2ccccc2)C1 (stereo not drawn) | -1.1
CCN(CC)c1cc(C)c2cc(NC(=O)c3ccc(Br)o3)ccc2n1 | -0.01
O=C(CN1C(=O)NC2(CCCC2)C1=O)N1CCN(S(=O)(=O)c2ccccc2)CC1 | 1
CCOc1cc(C(=O)N/N=C/C2CC=CCC2)cc(OCC)c1OCC (stereo not drawn) | -0.5
CCC(C)[C@H](NC(=O)Nc1ccccc1F)C(=O)OC (stereo partly drawn) | -0.33
Cn1c(=NC(=O)COc2ccccc2)sc2ccccc21 | 0.38
CCOC(=O)C1(CCc2ccccc2)CCN(C(=O)C(C)n2cncn2)CC1 (stereo not drawn) | 0.89
Cc1cc(NC(=O)Nc2cccc(C(F)(F)F)c2)no1 | 3
Cn1c(=O)c2c(nc(N/N=C/c3cccs3)n2C)n(C)c1=O | -0.34
COc1ccc(N2CC(C(=O)OCC(=O)c3ccc(C)cc3)CC2=O)cc1 (stereo not drawn) | 0.49
O=C1c2ccccc2CN1CCNC(=S)NC1CCCCC1 | 0.27
Cc1cc(Nc2ccccc2)c2c([N+](=O)[O-])c(C)cc(C)c2n1 | 1.4
O=C(Oc1ccc(C(=S)N2CCOCC2)cc1)c1cc([N+](=O)[O-])cc([N+](=O)[O-])c1 | -0.84
Cc1ccc(S(=O)(=O)NCCCCCC(=O)Nc2ccccn2)cc1 | 1.2
CCCOc1ccc(N2C(=O)C3C(C(C)C)NC4(C(=O)c5ccccc5C4=O)C3C2=O)cc1 (stereo not drawn) | -0.76
COc1ccc(CNC(=O)CN(c2ccc(OC)cc2)S(=O)(=O)c2c(C)[nH]c(=O)[nH]c2=O)cc1 | 0.21
Cc1cc2c(cc1C)C(c1cc(Br)ccc1F)CC(=O)N2 (stereo not drawn) | 2.2
COc1ccc(CNC(=O)c2sc(=S)n(-c3ccc(OC)cc3)c2N)cc1 | -0.2

Laid out differently: results already given.
> Cn1c(=O)c2c(nc(N/N=C/c3cccs3)n2C)n(C)c1=O
  Kir21 inh: -0.34
> COc1ccccc1/C=C/CN1CCN(Cc2ccc(C)o2)C(CCO)C1 (stereo not drawn)
  Kir21 inh: 0.17
> COc1ccc(/C=N/Nc2ccc([N+](=O)[O-])cc2S(=O)(=O)N2CCN(C)CC2)cc1
  Kir21 inh: -0.27
> COc1ccc(CNC(=O)c2sc(=S)n(-c3ccc(OC)cc3)c2N)cc1
  Kir21 inh: -0.2

(continued)
SMILES | Kir21 inh
COc1cccc(NC(=O)Cn2nnc(C(=O)NCc3ccc4c(c3)OCO4)c2N)c1 | -2.1
O=C(NCc1cccs1)C1CCN(C(=O)NCc2ccccc2)CC1 | 0.09
C=CCn1c(COc2ccc(Cl)cc2)nnc1SCC(=O)c1c(N)n(C)c(=O)n(C)c1=O | -1.8
CC(C)(Oc1ccc(Cl)cc1)C(=O)NCc1n[nH]c(=O)c2ccccc12 | -1.1
CCCc1nc([N+](=O)[O-])c(S(=O)(=O)c2ccccc2)n1CC(C)C | -0.78
COc1cccc(C(c2c(N)[nH]c(=S)[nH]c2=O)c2c(N)[nH]c(=S)[nH]c2=O)c1 | -0.31
Cc1c(C)n(CC(O)CN2C(=O)c3ccccc3S2(=O)=O)c2ccccc12 (stereo not drawn) | 1.7
Cc1ccc(C(=O)CC2(O)C(=O)N(Cc3ccccc3Cl)c3ccccc32)o1 (stereo not drawn) | 0.25
Cc1nc2cc(C(=O)OCC(=O)Nc3ccc(C#N)cc3)ccc2n1-c1ccccc1 | -0.27
CC(CCc1ccccc1)NC(=O)c1ccccc1C(=O)O (stereo not drawn) | 0.66
CNC(=O)CN(Cc1ccccc1)S(=O)(=O)c1ccccc1 | 0.93
Cc1ccc(C=Nc2cc([N+](=O)[O-])ccc2C)s1 | -1.4
CCn1c(Sc2nc(C)nc3scc(-c4cccs4)c23)n[nH]c1=O | -1.2
COc1ccc2c(CSc3nnc(-c4cccnc4)n3-c3ccccc3F)cc(=O)oc2c1 | -0.14
O=[n+]1c2c(n([O-])c3cc(Br)ccc31)CCCC2 | -0.68
C=CCn1nnnc1SCC(=O)Nc1ccc(OC)cc1 | -0.04
Cc1ccccc1S(=O)(=O)Cc1ccc(C(=O)NCc2ccco2)o1 | 0.94
N#Cc1ccc(-c2csc(NC(=O)c3cc(-c4cccs4)nc4ccccc34)n2)cc1 | 0
O=C(/C=C/c1ccco1)Nc1ccc(C(=O)N2CCOCC2)cc1 | -0.94
COc1cccc(NC(=S)N/N=C2\CC3CCC2(C)C3(C)C)c1 (stereo not drawn) | -0.2
COc1cc(NC(=O)NCc2ccncc2)cc(OC)c1OC | -0.5
COc1ccc(CN(Cc2ccc(C(=O)O)cc2)C(=S)Nc2cc(C)cc(C)c2)cc1OC | 1.2
CCOC(=O)CN1C(=O)S/C(=C/c2ccc(C)o2)C1=O | 0.04
COc1ccccc1C(=O)OCC(=O)Nc1ccc(Cl)cn1 | 2.6

A different layout for part of the listing above:
molecule	Kir21 inh
CCC1CCc2c(sc(NC(C)=O)c2C#N)C1 (stereo not drawn)	0.11
COc1cccc(C(c2c(N)[nH]c(=S)[nH]c2=O)c2c(N)[nH]c(=S)[nH]c2=O)c1	-0.31
CCOC(=O)CCCNC(=O)CCNC(=O)c1ccc(OC)cc1	0.72
COc1cc(NC(=O)NCc2ccncc2)cc(OC)c1OC	-0.5
CCS(=O)(=O)N1CCCC(C(=O)NCCN(C)Cc2ccccc2)C1 (stereo not drawn)	-1.1
